PV pol inh = inhibitors of poliovirus RNA polymerase binding and polymerization | poliovirus polymerase elongation, fluorescence polarization; active compounds read low | % elongation, % (compound at 16.7 µg/mL) | 150,000 compounds, 0.66% hits | AID 588519; in the data active means % elongation below about 90%; further: some results filed as inactive read as strong as hits
Target sequence (P03300 1749-2209 limits assumed): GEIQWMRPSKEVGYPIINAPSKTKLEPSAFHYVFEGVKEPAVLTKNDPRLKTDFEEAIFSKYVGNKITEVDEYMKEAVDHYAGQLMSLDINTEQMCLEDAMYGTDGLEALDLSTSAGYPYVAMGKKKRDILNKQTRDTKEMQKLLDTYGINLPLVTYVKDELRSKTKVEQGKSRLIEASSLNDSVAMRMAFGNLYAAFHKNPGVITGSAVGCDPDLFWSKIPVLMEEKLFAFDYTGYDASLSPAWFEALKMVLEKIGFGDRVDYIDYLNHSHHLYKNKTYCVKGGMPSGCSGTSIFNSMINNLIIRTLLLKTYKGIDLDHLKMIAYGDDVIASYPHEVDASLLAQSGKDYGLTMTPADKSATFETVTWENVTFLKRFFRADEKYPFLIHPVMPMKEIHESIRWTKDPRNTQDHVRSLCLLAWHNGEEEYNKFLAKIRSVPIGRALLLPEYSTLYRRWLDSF
Mtb MenB inh = inhibitors of Mycobacterium tuberculosis MenB enzyme; P9WNP5; MenB enzyme assay, absorbance read-out; some hits fall short of the stated cut; inhibition, %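 (about 12 µg/mL by stock and volumes)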; 100,000 compounds, 0.43% hits; AID 540299;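 active means mean of two replicates above 30%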;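 further: 0% = no compound and 100% = wells with inactive enzyme; the first replicate is given; strong numbers were not always called active; inactives centre near -10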
Target sequence (P9WNP5 whole entry, looked up): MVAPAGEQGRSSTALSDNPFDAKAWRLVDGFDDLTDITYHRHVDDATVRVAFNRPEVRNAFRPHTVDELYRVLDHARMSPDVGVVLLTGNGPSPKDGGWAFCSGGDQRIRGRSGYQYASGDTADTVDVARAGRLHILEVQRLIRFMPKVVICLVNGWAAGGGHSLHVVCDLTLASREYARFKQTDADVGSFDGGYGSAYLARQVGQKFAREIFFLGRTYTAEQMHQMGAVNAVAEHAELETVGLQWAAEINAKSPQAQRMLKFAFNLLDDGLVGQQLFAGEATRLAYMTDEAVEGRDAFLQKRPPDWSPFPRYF
Mtb MbtI inh = blocks the Mycobacterium tuberculosis siderophore enzyme MbtI; P9WFX0; purified MbtI enzyme, fluorescence intensity read-out; inhibition, %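 (about 17 µg/mL by stock and volumes)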; 100,000 compounds, 0.89% hits; AID 493033;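 active means above 50% in both replicates, above 80% if mildly self-fluorescent; inactive means the rest, strongly fluorescent compounds included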;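 further: 0% = mean of negative and 100% = mean of positive controls; one replicate is shown; some compounds called inactive have numbers as strong as hits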
PV pol inh intensity = recorded beside PV pol inh, whose call it bears; % elongation; measured here: total intensity read-out; formula for this scale not given here;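 total fluorescence in place of polarization; lower means less elongation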
* marks the source's active call; other numbers are inactive results; i = inactive; · = not tested or not shown.

SMILES	PV pol inh	PV pol inh intensity	Mtb MenB inh	Mtb MbtI inh
Cc1noc(C)c1NC(=O)NC1Cc2ccccc2C1	104	101	-12	1
Cc1ccc(N2CC(C(=O)Nc3nnc(SCC(=O)NCc4ccco4)s3)CC2=O)cc1C (configuration not stated)	100	108	1	18
CCCn1c(=O)n(C)c(=O)c2c3oc(=O)c(NC(=O)c4ccccc4)cc3[nH]c21	124	182	-5	-19
S=c1oc(COc2ccccc2Cl)nn1CN1CCOCC1	95	90	4	5
COCCN1C(=O)c2ccccc2C(C(=O)N2CCN(c3ccccc3)CC2)C1c1c[nH]c2ccccc12 (configuration not stated)	102	105	-13	-4
CC(NC(=O)c1cc(=O)[nH]c2ccc(S(=O)(=O)N3CCOCC3)cc12)C12CC3CC(CC(C3)C1)C2 (configuration not stated)	-9.0*	21*	-13	11
Cc1c(N=CC(O)CN2CC3CC(C2)c2cccc(=O)n2C3)c(=O)n(-c2ccccc2)n1C (configuration not stated)	93	99	-26	·
Cc1ccc(C(=O)OCc2ccc(C#N)cc2)c(O)c1	104	93	-22	-10
Cc1cc(C)nc(N2CCC(C(O)(c3ccccc3)c3ccccc3)CC2)n1	101	100	-11	-25
c1ccc(-c2nsc(NC3Cc4ccccc4C3)n2)cc1	99	107	-9	-3
CCN(CC)S(=O)(=O)c1ccc(N2C(=O)Nc3ccccc3N2O)cc1	103	104	-6	-4
Fc1ccc(-c2cn3cccc(OCc4ccc(Cl)c(Cl)c4)c3n2)cc1	106	103	-11	9
COc1ccc(C2CC(=O)C(C=NC3CCCC3)=C(O)C2)cc1 (configuration not stated)	101	105	-25	-11
CN(C)c1ccc(Nc2nc3ccccc3nc2NS(=O)(=O)c2cccs2)cc1	99	101	1	4
O=C(c1cn(CCOc2ccccc2)c2ccccc12)C1CC1	107	110	-35	·
O=C(NCCC1=CCCCC1)Nc1noc2c1COc1ccccc1-2	103	101	-9	-30
Brc1ccc2nc(CSc3nnc4ccccn34)cn2c1	100	98	·	7
CCCN1C(=O)C(NC(C)=O)c2cc(C)ccc21 (configuration not stated)	100	102	27	-2
Cc1cccc2c1[nH]c1nc(=S)[nH]nc12	100	102	-28	34
CCN(C(=O)Cn1cnc(S(=O)(=O)N2CCOCC2)c1)c1cccc(C)c1	102	101	-20	-6
Nc1c(C(=O)c2cccs2)oc2nc(-c3cccs3)cc(-c3ccco3)c12	70	191	-11	-11
Cc1cc(N)n2c(nc3ccccc32)c1C#N	103	112	-8	109
Nc1nnc(Cc2ccccc2)s1	97	93	·	14
O=C(CSCc1ccco1)Nc1ccc(Br)cc1	102	101	13	-6
CN(C)S(=O)(=O)c1ccc(N2CCCC2)c(C(=O)OCc2ncc(-c3ccccc3)o2)c1	101	105	-27	20

Next entries
SMILES	PV pol inh	PV pol inh intensity	Mtb MenB inh	Mtb MbtI inh
CCOC(=O)c1c(F)c(F)c(S(C)(=O)=O)c(F)c1F	107	99	-14	-4
N#Cc1cc(C(=O)c2cc(Br)ccc2O)cn(-c2ccccc2F)c1=O	114	161	·	2
CN1C(=O)/C(=C2/C=CC=CN2C)SC1=S	98	104	i	-7
Cc1cccc(C)c1NC(=O)CCCSc1nnnn1C	101	95	1	-8
O=C(NCCc1ccccc1)c1c(O)nc2ccccn2c1=O	103	103	-11	18
COc1ccccc1NC(=O)C(CC(C)C)NC(=O)C1CCCCC1 (configuration not stated)	101	103	-3	-6
CC(=O)Nc1ccc(S(=O)(=O)Nc2cc(C)c(-n3nc4ccccc4n3)cc2O)cc1	101	99	-42	7
CCN=c1sc(C2=c3ccccc3=NC2=O)c(O)n1CC	103	100	-12	0
Cc1ccc(CN2N=NC3C(=O)NC(=O)C32)cc1 (configuration not stated)	102	104	11	-5
CN(Cc1cnn(-c2ccccc2)c1)C(=O)C1CCN(c2ccc(-c3cccs3)nn2)CC1	100	100	-48	-4
CNC(=O)CSc1nncn1-c1ccccc1	103	102	-6	9
N#Cc1cn(C2CCCCC2)c(=O)[nH]c1=O	105	106	-15	-9
O=C(c1ccc[nH]c1=S)n1ccnc1	101	105	21	8
CCn1c(O)c(/C=C/c2nc3ccccc3n2CC)sc1=S	107	111	-24	-21
CCCC(=O)Oc1ccc(N(C(=O)CCC)S(=O)(=O)c2ccccc2)cc1	102	95	3	2
COc1ccc(/C=C2/CC(C(C)(C)C)C/C(=C\c3ccc(OC)cc3OC)C2=O)c(OC)c1 (configuration not stated)	102	96	2	5
Cc1ccc(C(=O)CSc2nc3ccccc3c(=O)n2N)o1	103	103	-20	-1
O=C(Nc1cccc(Cl)c1)Nc1nncs1	99	96	-9	·
O=c1ccc2c(c1)oc1c(-c3ccccc3)c3ccccc3[nH]c12	103	103	-6	-136
C=CCNC(=O)c1c(N)n(-c2ccccc2)c2nc3ccccc3nc12	101	104	·	-14
CCc1ccc(NC(=O)c2cc(=O)n3c(nc4ccccc43)s2)cc1	102	102	-11	-2
CCNC(=O)N(Cc1ccc(Cl)cc1)Cc1cccnc1	98	99	8	-4
CC(NCc1cccc(S(=O)(=O)N(C)C)c1)c1ccc(F)cc1 (configuration not stated)	99	98	3	-1
COc1cccc(NC(=O)c2ccc(OC)c(OC)c2)c1	104	102	-27	1
O=S(=O)(NC1CCCCC1NC1CCCCC1)c1ccccc1 (configuration not stated)	105	102	-6	-7

(further entries)
SMILES	PV pol inh	PV pol inh intensity	Mtb MenB inh	Mtb MbtI inh
CC1(C)Oc2ccc(/C=C/C(=O)N3CCCCC3)c(O)c2C(N2CCCCC2)C1O (configuration not stated)	100	106	-2	51
COc1ccc(C2c3sc(=S)[nH]c3SC3C4CCC(C4)C23)cc1 (configuration not stated)	103	100	-29	16
C/C(=N\O)c1ccc(O)cc1O	106	106	-11	7
O=C(c1cccc(Cl)c1)N1CCCC1	103	95	1	·
Cc1cc(=O)c2c(ccc3ccccc32)[nH]1	99	102	19	89
COc1cccc(NC(=S)Nc2ccc(N(C)C)cc2)c1	101	102	-40	32
CCCn1c2ccccc2c2nnc(SCCN3CCCCC3)nc21	102	102	8	3
CCCCn1c(=N)c(C(N)=O)cc2c(=O)n3ccccc3nc21	96	108	-11	107
CCOC(=O)c1sc(S(C)=O)c2c1CCc1conc1-2 (configuration not stated)	103	105	-7	0
CO/C(N)=N/C(=S)Nc1ccc(F)cc1F	100	98	-44	-7
CCOC(=O)/C(C#N)=C(\C)C1CC1	100	103	·	2
O=C1N2c3ccccc3CCc3cccc(c32)C1(O)C(F)(F)F (configuration not stated)	100	104	-15	-8
O=C(c1cccs1)c1coc2ccc(O)cc12	106	110	6	·
COc1nc(C#N)nc(N2CCCCC2)n1	91	83	6	·
Cc1ccc(S(=O)(=O)C(C)(C)C)s1	100	101	18	-8
CCOc1ccc(-c2nnn(CCC#N)n2)cc1OC	100	101	-2	-2
NC(=O)c1oc2ccccc2c1NC(=O)COc1ccccc1	100	101	-22	-66
O/N=C1\COc2ccccc2O1	103	102	-33	-3
Cc1ccc(S(=O)(=O)N(C)c2ccc(OCC(=O)OCc3nnc(-c4ccccc4)o3)cc2)cc1	96	107	-55	-6
CCCOc1cccc(C(=O)NC(C)c2ccncc2)c1 (configuration not stated)	102	103	-1	-1
O=C(NCC1CCN(CCc2ccc(F)cc2)CC1)Nc1ccc2c(c1)OCO2	99	103	-18	-1
CCc1cc2c(NC3CCCC3)ncnc2s1	105	109	-11	·
N#C/C(=C(/O)CN1C(=O)c2ccccc2C1=O)c1nc2ccccc2[nH]1	104	103	-27	5
CCC1(CC)C(=O)C(C)(C)C(=O)OC1c1cccs1 (configuration not stated)	100	101	-23	-14
COc1ccc2oc(=O)cc(-c3cc4cccc(OC)c4o3)c2c1	105	97	-21	4

Next records:
SMILES	PV pol inh	PV pol inh intensity	Mtb MenB inh	Mtb MbtI inh
COc1ccc(CCNC(=O)c2coc3ccccc3c2=O)cc1	104	108	·	-7
Nc1cc(N)nc(SCC(=O)N(Cc2cccs2)c2ccc3c(c2)OCCO3)n1	108	112	5	6
CC(O)CNC1CCC2CCCCC2C1 (configuration not stated)	104	103	-17	-14
Cc1cccc(C(=O)NCc2nc3ccccc3[nH]2)c1	102	101	-15	-8
Nc1ccc(Cc2nc3cc4ccccc4cc3[nH]2)cc1	101	97	-8	19
CCC(=O)Nc1ccc2c(c1)nc1n2CCN(C2CCCCC2)C1	101	105	-66	88
CCCCCc1ccc(-c2nc(CCCC)no2)cc1	103	104	-52	-5
O=C(c1ccco1)N1CCN(C(=O)c2cc3cc(Br)cc(Br)c3oc2=O)CC1	·	·	0	3
Cc1ccc2nc(-c3ccc(NC(=O)CC4SC(=NCc5ccco5)NC4=O)cc3)sc2c1 (configuration not stated)	104	109	-5	-4
Cc1cc2ccccc2n1CCCN	100	106	24	57
OCCN1CN=C(Nc2nc3ccccc3o2)NC1	105	103	-10	2
CCN1CCN(C(=O)C2c3ccccc3C(=O)N(CC(C)C)C2c2cccs2)CC1 (configuration not stated)	103	105	-4	-11
CN(CCC#N)C(=O)C1CCC(CNS(=O)(=O)c2ccccc2)CC1 (configuration not stated)	99	100	7	-7
COC(=O)C1=CN(C2CCCC2)C=C(C(=O)OC)C1c1ccc(Cl)cc1	101	102	-16	-17
CCN(CC)c1ccc2c(COC(C)=O)cc(=O)oc2c1	102	109	-153	-286
CCN(CC)c1ncccc1C(=O)N1CCCC1	105	104	-54	3
N#CCn1nnc2ccccc21	98	100	·	1
C1CN(c2nc(N3CCOCC3)nc(N3CCOCC3)n2)CCN1	103	104	-17	-10
O=C(O)c1cccc(S(=O)(=O)NCc2ccc3c(c2)OCO3)c1	108	107	-2	-1
COc1ccccc1CNC(=O)/C=C/c1cccc(Br)c1	99	98	·	3
CC(C)(C)n1ncc2c(=O)n(Cc3ccccc3)cnc21	98	100	-47	6
CCN=C(NCC)SC1CC(=O)N(c2ccccc2)C1=O (configuration not stated)	99	104	8	-8
O=C(Cn1nc(C(=O)O)c2ccccc2c1=O)NC1CCCc2ccccc21 (configuration not stated)	104	106	-5	6
CCC(CO)NC(=O)c1cc2cc(Br)cc(Br)c2o1 (configuration not stated)	100	95	·	7
COc1ccc(NC(=O)CSc2ccccc2)cc1	97	102	7	3

(listing goes on)
SMILES	PV pol inh	PV pol inh intensity	Mtb MenB inh	Mtb MbtI inh
O=C(NCc1ccccc1)C1Cc2ccccc2CN1C(=O)c1ccco1 (configuration not stated)	99	95	-3	-4
CC1CN(C(=O)NC23CC4CC(CC(C4)C2)C3)CC(C)O1 (configuration not stated)	99	103	-10	-4
COCc1cc(C)nc2sc3c(c12)NC(c1ccccc1)NC3=O (configuration not stated)	103	113	-34	·
O=C1Nc2ccccc2C12CC(c1ccc(F)c(Cl)c1)=NN2 (configuration not stated)	95	95	-13	·
CCOC(=O)C1=C(C)N(c2ccccc2)C(=O)C1CC(=O)O (configuration not stated)	102	102	-3	16
O=C(CC(c1ccccc1)c1cc(Br)ccc1O)NCCCN1CCOCC1 (configuration not stated)	101	97	-8	-3
COc1ccc(-c2ccc(CCC(=O)O)o2)cc1	104	107	-6	·
CN1CC(C(=O)N2CCN(c3ccccc3F)CC2)c2ccccc2C1=O (configuration not stated)	100	102	11	-5
CCN(CC)C(=O)c1ccc(I)cc1	100	103	-36	-5
CCSC1=C(C#N)C(=O)NC(c2ccc(OC)cc2)S1 (configuration not stated)	100	102	-8	4
Cn1c2c(c(=O)n(C)c1=O)CN(Cc1ccccc1)CN2	100	103	5	-2
O=S(=O)(NCCCO)c1ccc2c(c1)Cc1cc(S(=O)(=O)NCCCO)ccc1-2	98	101	-11	15
CC(C)n1ncc2c(C(=O)NCC3COc4ccccc4O3)cc(C3CC3)nc21 (configuration not stated)	107	109	-21	81
Cc1ccc2c(c1)c(-c1ccccc1)c(-c1ccccc1)n2CC(O)Cn1c(C)cc(C)nc1=O (configuration not stated)	101	106	6	-3
Cc1ccc2nc(-c3ccc(NC(=O)c4ccncc4)cc3)sc2c1	105	107	·	-20
Cc1ccc(S(=O)(=O)NCCN2CCOCC2)cc1-c1nnc2c3ccccc3c(C)nn12	99	100	1	0

Among those listed so far, these have a furan ring, fused or not.
SMILES	PV pol inh	PV pol inh intensity	Mtb MenB inh	Mtb MbtI inh
Cc1ccc(N2CC(C(=O)Nc3nnc(SCC(=O)NCc4ccco4)s3)CC2=O)cc1C (configuration not stated)	100	108	1	18
Nc1c(C(=O)c2cccs2)oc2nc(-c3cccs3)cc(-c3ccco3)c12	70	191	-11	-11
O=C(CSCc1ccco1)Nc1ccc(Br)cc1	102	101	13	-6
Cc1ccc(C(=O)CSc2nc3ccccc3c(=O)n2N)o1	103	103	-20	-1
O=c1ccc2c(c1)oc1c(-c3ccccc3)c3ccccc3[nH]c12	103	103	-6	-136
O=C(c1cccs1)c1coc2ccc(O)cc12	106	110	6	·
NC(=O)c1oc2ccccc2c1NC(=O)COc1ccccc1	100	101	-22	-66
COc1ccc2oc(=O)cc(-c3cc4cccc(OC)c4o3)c2c1	105	97	-21	4
O=C(c1ccco1)N1CCN(C(=O)c2cc3cc(Br)cc(Br)c3oc2=O)CC1	·	·	0	3
Cc1ccc2nc(-c3ccc(NC(=O)CC4SC(=NCc5ccco5)NC4=O)cc3)sc2c1 (configuration not stated)	104	109	-5	-4
CCC(CO)NC(=O)c1cc2cc(Br)cc(Br)c2o1 (configuration not stated)	100	95	·	7
O=C(NCc1ccccc1)C1Cc2ccccc2CN1C(=O)c1ccco1 (configuration not stated)	99	95	-3	-4
COc1ccc(-c2ccc(CCC(=O)O)o2)cc1	104	107	-6	·

Source: PubChem BioAssay (ICCB-Longwood Screening Facility, Harvard Medical School)
